Tau FP inhib = blocks human tau fibril formation measured by polarization; K18 P301L tau heparin fibrillization, Alexa594 FP, 6 h; Potency, µM (highest dose often 57.7 µM), for the others: at the top dose activity, negative = inhibition, actives largely listed as inhibitors; actives 0.39% (n = 280,000); AID 1468; note: nearly all actives have a fitted effect of over 55% in size
Target sequence (P10636 561-689 P618L limits assumed): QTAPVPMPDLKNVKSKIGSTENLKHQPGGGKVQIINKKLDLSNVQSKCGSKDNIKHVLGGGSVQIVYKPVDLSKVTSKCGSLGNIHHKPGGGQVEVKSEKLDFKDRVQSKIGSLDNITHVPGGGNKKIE
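FP of Alexa 594-tau after heparin (20 uM) induction. Substrate: human K18 P301L, 15 uM unlabeled, 0.24 uM labeled. Buffer 100 mM sodium acetate pH 7. 6 hr, 37 C.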
Tau ThT inhib = tau fibrillization inhibition (ThT binding); recombinant tau K18 P301L, heparin-induced fibrillization, ThT fluorescence; Potency, µM (titrated, usually from 57.4 µM), without a hit: at the highest dose activity, negative = inhibition, hits mostly inhibitors; actives 2.1% (n = 270,000); P10636; note: nearly all actives have a fitted effect of over 55% in size
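Tau K18 P301L fragment (15 uM unlabeled plus 0.24 uM Alexa 594-labeled) in 100 mM sodium acetate pH 7 with compound, fibrillization induced by 20 uM heparin for 6 hr at 37 C. Thioflavin T (30 uM) added, fluorescence read after 1 hr (ex 450, em 510 nm).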
Tau fluor cs = counter-screen for tau fibril formation inhibitors. AID 1463. tau K18 P301L Alexa594 fluorescence, heparin fibrillization. Potency, µM (doses to about 57.7 µM), inactives show at the top dose activity change, negative = decrease. actives 0.93% (n = 280,000); note: nearly all actives have a fitted effect of over 55% in size
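Human tau K18 P301L (15 uM unlabeled, 0.24 uM Alexa 594-labeled) in 100 mM sodium acetate pH 7 with 20 uM heparin, 6 hr at 37 C. ThT 30 uM added, 1 hr ambient; Alexa 594 FP and total fluorescence read at 555/632 nm.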
TexasRed fluor = Texas Red fluorescence interference in TRb-SRC2 counter-screen; TRb/SRC2 Texas Red total fluorescence interference; Potency, µM (series often up to 106 µM), for the others: at the highest dose fluorescence change, negative = quenching; actives 0.29% (n = 280,000); active = well fitted curve in either direction with a large enough effect; inconclusive = small, poorly fitted or top-dose-only effect
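Human TRβ ligand-binding domain (0.6 uM) and Texas Red SRC2 peptide (20 nM) in Tris buffer with 1 uM T3 and 5% DMSO were incubated with pinned compound for 5 hr at ambient temperature. Total fluorescence was computed as S + 2P (555/632 nm).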
TRb-SRC2 inh = disrupts binding of human TR beta to SRC2 | P10828 | TRbeta-SRC2 peptide binding, fluorescence polarization; receptor liganded with 1 µM T3 | Potency, µM (series often up to 106 µM), for the others: top-dose activity change, negative = inhibition, hits mostly inhibitors | actives 0.065% (n = 280,000);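 note: plate controls were bound peptide for no effect and peptide without receptor for full effect; nearly all actives have a fitted effect of over 50% in size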
Target sequence (P10828 whole entry, looked up): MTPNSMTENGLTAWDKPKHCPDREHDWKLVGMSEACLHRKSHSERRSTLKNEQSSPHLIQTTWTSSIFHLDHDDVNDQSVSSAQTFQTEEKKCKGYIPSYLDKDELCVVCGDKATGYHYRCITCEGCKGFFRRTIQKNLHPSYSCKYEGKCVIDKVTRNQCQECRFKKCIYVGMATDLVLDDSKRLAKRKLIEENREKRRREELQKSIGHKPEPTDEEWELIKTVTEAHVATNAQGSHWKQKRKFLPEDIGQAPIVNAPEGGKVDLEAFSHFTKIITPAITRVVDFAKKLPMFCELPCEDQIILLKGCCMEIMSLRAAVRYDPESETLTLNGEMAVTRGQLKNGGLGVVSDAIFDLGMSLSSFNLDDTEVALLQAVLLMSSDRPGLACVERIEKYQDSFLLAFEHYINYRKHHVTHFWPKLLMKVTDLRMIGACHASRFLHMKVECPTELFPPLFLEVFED
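Binding of a 20-amino-acid Texas Red SRC2 peptide (20 nM) to TRb ligand-binding domain (0.6 uM) with agonist T3 at 1 uM was followed by fluorescence polarization after a 5 hr room-temperature incubation.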
Starred values were filed as active, the others as inactive; u = inconclusive; x = not tested or not shown; & = joins results of further samples; [ ] = another dose, or the depositor's remark. Unless noted, calls come from the whole dose curve; as a rule, active = well fitted curve in the direction sought with a large enough effect; inconclusive = small, poorly fitted or top-dose-only effect, or another doubt; inactive = no such curve, though single readings can be large; an effect the other way counts as inactive or inconclusive. Unless noted, % is set by controls: 0 for no effect and ±100 for the full control effect; potency is the fitted concentration of half-maximal effect. Only part of the results is shown (hit frequency here may not be typical).

(1) CN(C)CC[C@@H](c1ccc(Br)cc1)c1ccccn1
(2) CC1=NS(=O)(=O)c2cc(Cl)ccc2N1
(3) CC(C)NCC(O)c1cc(O)cc(O)c1 (configuration not stated)
(4) O=C(COc1ccc(Cl)cc1)OCCNC12CC3CC(CC(C3)C1)C2
(5) COCCCCC(=NOCCN)c1ccc(C(F)(F)F)cc1
(6) COc1ccccc1NCCC(=O)OCC(=O)NCc1ccco1
(7) Cc1ccccc1C
(8) O=C(CSc1nnc(SCc2ccccc2)s1)N/N=C/c1c[nH]c2ccccc12

Assay by compound,1,2,3,4,5,6,7,8
Tau FP inhib,-1%,-4%&3%&-4%&-3%&2%&0%,-12%&7%&4%,x,0%,-3%,x,-4%
Tau ThT inhib,-5%,-3%&-7%&-6%&5%&1%&2%,-4%&2%&4%,x,-11%,-19%,x,-5%
Tau fluor cs,-6%,-7%&-7%&-7%&3%&-5%&-4%,-4%&-1%&9%,x,-10%,-9%,x,u
TexasRed fluor,2%&-1%,u,-2%&-1%&-1%,0%,0%,-19%,0%&-3%,-2%
TRb-SRC2 inh,-1%&-1%,-7%,1%&5%&1%,-4%,5%,-22%,7%&0%,6%

Whole records, quoted from the list. Order of values: Tau FP inhib, Tau ThT inhib, Tau fluor cs, TexasRed fluor, TRb-SRC2 inh
`COCCCCC(=NOCCN)c1ccc(C(F)(F)F)cc1` is listed with 0%, -11%, -10%, 0%, 5%
`CC1=NS(=O)(=O)c2cc(Cl)ccc2N1` is listed with -4%&3%&-4%&-3%&2%&0%, -3%&-7%&-6%&5%&1%&2%, -7%&-7%&-7%&3%&-5%&-4%, u, -7%
`CC(C)NCC(O)c1cc(O)cc(O)c1` (configuration not stated) is listed with -12%&7%&4%, -4%&2%&4%, -4%&-1%&9%, -2%&-1%&-1%, 1%&5%&1%
`CN(C)CC[C@@H](c1ccc(Br)cc1)c1ccccn1` is listed with -1%, -5%, -6%, 2%&-1%, -1%&-1%
`Cc1ccccc1C` is listed with x, x, x, 0%&-3%, 7%&0%

Other records follow.
(9) Cc1cc(C(=O)NNCc2ccccc2)no1
(10) CCN1CCC[C@H]1CNC(=O)c1c(OC)ccc(Br)c1OC
(11) C[C@@H]1O[C@H](O[C@@H]2[C@H](C)O[C@H](O[C@@H]3[C@H](C)O[C@H](O[C@H]4CC[C@]5(C)[C@@H](CC[C@@H]6[C@H]5C[C@@H](O)[C@]5(C)[C@@H](C7=CC(=O)OC7)CC[C@]65O)C4)C[C@@H]3O)C[C@@H]2O)C[C@H](O)[C@@H]1O
(12) O=C(Cc1cccs1)Nc1nnc(Cc2ccccc2)s1
(13) O=C(/C=C/c1ccco1)Nc1cccc(C(=O)Nc2ccccc2C(=O)O)c1
(14) CC(C)(Oc1ccc(Cl)cc1)C(=O)O
(15) CC(C)Oc1ccc2c(=O)c(-c3ccccc3)coc2c1
(16) O=C(COC(=O)/C=C/c1ccco1)Nc1ncc(C(F)(F)F)cc1Cl

Assay by compound,9,10,11,12,13,14,15,16
Tau FP inhib,x,-8%&-7%,x,-7%,-3%,-1%&-18%&-6%,-15%&-5%&5%,5%
Tau ThT inhib,x,-5%&-3%,x,-18%,-2%,u,u,4%
Tau fluor cs,x,-3%&-10%,x,-20%,-11%,1%&-26%&1%,-17%&-18%&-11%,0%
TexasRed fluor,-3%[53 µM],-1%,-3%[53 µM],u,-5%,-1%[201 µM],0%&-2%&-4%,0%
TRb-SRC2 inh,7%[53 µM],0%,-5%[53 µM],30%,9%,2%[201 µM],-9%&3%&0%,3%

(17) COCCc1ccc(OC[C@H](O)CNC(C)C)cc1
(18) C[C@@]12CCC(=O)C=C1CC[C@H]1[C@H]3CC[C@](O)(C(=O)CO)[C@]3(C)CC(=O)[C@@H]12
(19) CN(C)CCC(c1ccc(Br)cc1)c1ccccn1 (configuration not stated)
(20) CN1CCN(CC(=O)N2c3ccccc3C(=O)Nc3cccnc32)CC1
(21) O=C(COC(=O)C1CC(=O)N(Cc2ccco2)C1)c1ccc(OC(=O)c2ccccc2)cc1 (configuration not stated)
(22) CN(C)C(=O)Oc1ccc[n+](C)c1
(23) COc1cccc(OC)c1C(=O)NC1C(=O)N2C1SC(C)(C)C2C(=O)O (configuration not stated)
(24) O=C(/C=C/c1ccco1)NCc1ccco1
(25) Fc1ccc(C(c2ccc(F)cc2)N2CCN(C/C=C/c3ccccc3)CC2)cc1
(26) C[C@H]1CC2[C@@H]3CCC4=CC(=O)C=C[C@]4(C)[C@@]3(F)[C@@H](O)C[C@]2(C)[C@@]1(O)C(=O)CO (some centres not stated)
(27) O=C(c1ccco1)N(CCC(c1ccccc1)c1ccco1)Cc1ccco1 (configuration not stated)

Assay by compound,17,18,19,20,21,22,23,24,25,26,27
Tau FP inhib,x,x,6%&-2%&10%,7%&4%&3%&-5%&1%,-10%,5%&2%&-5%,-6%,u,7%&4%&0%&1%&-19%,-12%,u
Tau ThT inhib,x,x,-3%&-9%&4%,0%&2%&-4%&-1%&-6%,u,-2%&2%&-5%,-4%,u,u,-14%,u
Tau fluor cs,x,x,6%&-12%&2%,1%&-2%&0%&-6%&-7%,-9%,4%&-1%&-2%,-8%,-25%,-21%&-13%&-28%&-10%&-22%,-22%,-28%
TexasRed fluor,2%,-3%[53 µM],-6%&4%&-2%,-4%,0%,-3%&0%&-1%,0%,-2%,-1%&-1%&-3%&-1%&-2%,4%,1%
TRb-SRC2 inh,1%,0%[53 µM],-2%&1%&1%,6%,-3%,-4%&6%&5%,1%,2%,9%&1%&-3%&-3%&-3%,-2%,-2%

Exported tab-delimited: part of the list above
item	Molecule	Tau FP inhib	Tau ThT inhib	Tau fluor cs	TexasRed fluor	TRb-SRC2 inh
9	Cc1cc(C(=O)NNCc2ccccc2)no1	x	x	x	-3%[53 µM]	7%[53 µM]
10	CCN1CCC[C@H]1CNC(=O)c1c(OC)ccc(Br)c1OC	-8%&-7%	-5%&-3%	-3%&-10%	-1%	0%

Quoted at random: 2 records from the list.
(5) COCCCCC(=NOCCN)c1ccc(C(F)(F)F)cc1
(21) O=C(COC(=O)C1CC(=O)N(Cc2ccco2)C1)c1ccc(OC(=O)c2ccccc2)cc1 (configuration not stated)

Assay by compound,5,21
Tau FP inhib,0%,-10%
Tau ThT inhib,-11%,u
Tau fluor cs,-10%,-9%
TexasRed fluor,0%,0%
TRb-SRC2 inh,5%,-3%

Screening results: PubChem, National Center for Advancing Translational Sciences (NCATS)
